VDR inh = blocks the human vitamin D receptor | VDR-SRC2-3 peptide fluorescence polarization, 2 h | P11473 | Potency, µM, for inactives: max response, negative = inhibition, hits mostly inhibitors | hit rate 0.93% among 400,000; active means well fitted inhibition curve with a large enough effect; inconclusive means small, poorly fitted or top-dose-only effect, or another doubt; inactive means no such curve, though single readings can be large or run the other way; further: series mostly up to about 120 µM
Target sequence (P11473 whole entry, looked up): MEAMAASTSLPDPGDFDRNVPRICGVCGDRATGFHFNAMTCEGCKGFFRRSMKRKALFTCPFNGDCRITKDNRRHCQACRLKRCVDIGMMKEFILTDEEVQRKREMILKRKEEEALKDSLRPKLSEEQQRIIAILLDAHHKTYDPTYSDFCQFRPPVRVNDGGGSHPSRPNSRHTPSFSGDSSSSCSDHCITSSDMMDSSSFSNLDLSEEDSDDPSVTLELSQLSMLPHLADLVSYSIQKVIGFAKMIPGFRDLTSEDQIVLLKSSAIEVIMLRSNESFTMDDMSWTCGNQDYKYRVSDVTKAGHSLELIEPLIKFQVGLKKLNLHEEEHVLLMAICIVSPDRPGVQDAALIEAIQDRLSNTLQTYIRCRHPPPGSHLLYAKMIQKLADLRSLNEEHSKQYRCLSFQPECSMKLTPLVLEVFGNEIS
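Measured by FP: displacement of SRC2-3 coactivator peptide from VDR by library compounds, following a two-hour ambient incubation.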
* hit, by the source's call; & = joins results of further samples. On the % scale 0 is the no-effect control and ±100 the full control effect; potency means the concentration at half of the fitted maximal effect. A portion of the library; the hit share may differ from the screen's.

What do the screens show for `Nc1nc(COc2ccc(F)cc2)nc(N2CCCCC2)n1`?
VDR inh: 17.0%

What do the screens show for `Cc1cc(C)c(Cc2c(C)nc3c(C(=O)NCc4ccco4)cnn3c2C)c(C)c1`?
VDR inh: inconclusive

Results for CC(=O)Nc1ccc(S(=O)(=O)N2N=NC3C2C2CC4C3(CN(C(=O)OC(C)(C)C)S4(=O)=O)O2)cc1 (stereo not given) ?
VDR inh: -28.4%

What do the screens show for `O=C(c1ccco1)N1CCN(C(=O)c2ccc(COc3ccc4c(c3)CCC4)o2)CC1`?
VDR inh: -10.2%

What do the screens show for `O=C(CSc1nccn1C1CCCC1)Nc1cc(C(F)(F)F)ccc1Cl`?
VDR inh: 24.3%

What do the screens show for `COc1ccc2cc(CCNC(=O)c3cccs3)c(=O)[nH]c2c1`?
VDR inh: -0.9%

How did CC(=O)NC12CC3CC(C1)CC(C(=O)N1CCN(S(=O)(=O)c4cccc(F)c4)CC1)(C3)C2 do in these assays?
VDR inh: 4.9%

How did CC(C)(C)S(=O)(=O)c1cnc(-c2ccccn2)nc1N do in these assays?
VDR inh: 6.0%

Results for N/C(=N\OC(=O)CCC1CCCC1)c1cccnc1 ?
VDR inh: -18.6%

How did CN1CCC(N(C)C(=O)/C=C/c2cn(-c3ccccc3)nc2-c2cccs2)CC1 do in these assays?
VDR inh: -12.8%

How did COc1ccc2oc(=O)c(-c3csc(/C(C#N)=C/c4ccc(F)cc4)n3)cc2c1 do in these assays?
VDR inh: -2.1%

Results for COc1ccc(C(=O)NC(=S)NCc2cccnc2)cc1Br ?
VDR inh: 1.2%

How did COc1ccc(-c2cc(C)no2)cc1S(=O)(=O)Nc1cccc(CN2CCCC2)c1 do in these assays?
VDR inh: -8.9%

Results for O=C1N(Cc2ccccc2)c2ccc(Cl)cc2C12OCCO2 ?
VDR inh: 13.0%

How did CC1=NNC(=O)C1CC(=O)N/N=C/c1ccc(C)o1 (stereo not given) do in these assays?
VDR inh: -18.1%

What do the screens show for `CC1CCCCC1NC(=O)Cn1c(=O)cnc2ccccc21` (stereo not given)?
VDR inh: 1.1%

Results for CCCc1nn(C)c2c(=O)[nH]c(-c3cc(S(=O)(=O)Nc4ccc(NC(C)=O)cc4)ccc3OCC)nc12 ?
VDR inh: -2.4%

Results for O=C(C1CCC1)N1CCc2cc(S(=O)(=O)NCc3cccnc3)ccc21 ?
VDR inh: -16.2%

What do the screens show for `Cc1c(Cl)cccc1-n1ncc(C(=O)NCc2cccs2)c1C1CCN(C(=O)OC(C)(C)C)CC1`?
VDR inh: 10.6%

Results for Cc1cccc2c1-c1sc(C(=O)NCCCN3CCC(C)CC3)cc1CO2 ?
VDR inh: 4.3%

How did Cc1cccc(N(C)S(=O)(=O)c2nnc(NC(=O)C(C)(C)C)s2)c1 do in these assays?
VDR inh: 14.2%

What do the screens show for `Cc1ccc(S(=O)c2ccc(NC(=O)C3CC3)cc2C#N)cc1` (stereo not given)?
VDR inh: 70.8µM*

How did Cc1ccc(C)c(NC(=O)C(Sc2nc3ccc(C)cc3[nH]2)c2ccccc2)c1 (stereo not given) do in these assays?
VDR inh: 8.2%

How did CCN1CCN(c2cc(C)c3cc(NC(=O)Cc4ccc(OC)c(OC)c4)ccc3n2)CC1 do in these assays?
VDR inh: 10.7%

Results for NC1=NC(=O)/C(=C\C=C\c2ccccc2)S1 ?
VDR inh: -19.5%

How did CCC1(CC)NC(=O)N(CC(=O)OC(C)C(=O)Nc2ccc(Cl)cn2)C1=O (stereo not given) do in these assays?
VDR inh: 3.5%

What do the screens show for `Cc1cc(Cl)nc(Cl)c1C(=O)NCc1ccc(Cl)cc1`?
VDR inh: -3.2%

How did COc1ccc(S(=O)(=O)N(CC(=O)NCC2CCCO2)Cc2ccccc2)cc1 (stereo not given) do in these assays?
VDR inh: inconclusive

What do the screens show for `COc1ccc(NS(=O)(=O)c2cc(NC(=O)CC3CCCC3)ccc2N2CCOCC2)cc1`?
VDR inh: -21.9%

What do the screens show for `CSc1nc(C)cc(OCC(=O)N2CCOCC2)n1`?
VDR inh: 8.8%

Twelve structures from above, ordered by length of the SMILES, ascending.
What do the screens show for `CSc1nc(C)cc(OCC(=O)N2CCOCC2)n1`?
VDR inh: 8.8%

Results for NC1=NC(=O)/C(=C\C=C\c2ccccc2)S1 ?
VDR inh: -19.5%

What do the screens show for `CC1CCCCC1NC(=O)Cn1c(=O)cnc2ccccc21` (stereo not given)?
VDR inh: 1.1%

What do the screens show for `Cc1cc(Cl)nc(Cl)c1C(=O)NCc1ccc(Cl)cc1`?
VDR inh: -3.2%

What do the screens show for `Cc1ccc(S(=O)c2ccc(NC(=O)C3CC3)cc2C#N)cc1` (stereo not given)?
VDR inh: 70.8µM*

Results for Cc1cccc2c1-c1sc(C(=O)NCCCN3CCC(C)CC3)cc1CO2 ?
VDR inh: 4.3%

How did Cc1cccc(N(C)S(=O)(=O)c2nnc(NC(=O)C(C)(C)C)s2)c1 do in these assays?
VDR inh: 14.2%

How did COc1ccc(S(=O)(=O)N(CC(=O)NCC2CCCO2)Cc2ccccc2)cc1 (stereo not given) do in these assays?
VDR inh: inconclusive

How did CCC1(CC)NC(=O)N(CC(=O)OC(C)C(=O)Nc2ccc(Cl)cn2)C1=O (stereo not given) do in these assays?
VDR inh: 3.5%

How did Cc1ccc(C)c(NC(=O)C(Sc2nc3ccc(C)cc3[nH]2)c2ccccc2)c1 (stereo not given) do in these assays?
VDR inh: 8.2%

What do the screens show for `COc1ccc(NS(=O)(=O)c2cc(NC(=O)CC3CCCC3)ccc2N2CCOCC2)cc1`?
VDR inh: -21.9%

What do the screens show for `Cc1c(Cl)cccc1-n1ncc(C(=O)NCc2cccs2)c1C1CCN(C(=O)OC(C)(C)C)CC1`?
VDR inh: 10.6%

(list continues)
Results for C[C@H](CO)N1C[C@H](C)[C@@H](CN(C)C(=O)NC2CCCCC2)Oc2c(NC(=O)C3CC3)cccc2C1=O ?
VDR inh: 3.7%

How did O=C(CN1CCN(C(=O)c2ccc(-c3nc4ccccc4s3)o2)CC1)Nc1ccc(F)cc1 do in these assays?
VDR inh: -7.9%

Results for COc1ccc(CCNC(=O)c2ccc3c(c2)N(Cc2ccc(F)cc2)C(=O)c2ccccc2S3(=O)=O)cc1OC ?
VDR inh: -11.5%

What do the screens show for `Cc1ccsc1C(=O)OCC(=O)c1ccc(OC(F)F)cc1`?
VDR inh: 7.2%

Results for COc1cccc(C(=O)NC(=S)Nc2ccc3[nH]c(=O)[nH]c3c2)c1 ?
VDR inh: -6.4%

Results for O=C(CCN1CCCCCC1)Nc1ccc(F)c(F)c1 ?
VDR inh: 9.7%

How did CC(=O)c1ccccc1OCC(O)CN1CCN(CCN2C(=O)c3cccc4cccc(c34)C2=O)CC1 (stereo not given) do in these assays?
VDR inh: -2.3%

How did Cc1ccc(Cl)cc1NC(=O)N1CCC(CN2CCc3ccccc3C2)CC1 do in these assays?
VDR inh: 16.7%

Results for O=C(CCCCCNC(=O)c1ccccc1)N/N=C/c1ccc(O)cc1O ?
VDR inh: -10.5%

What do the screens show for `Cc1cc(C)c(C(=O)N2CCCC(CNS(=O)(=O)N(C)C)C2)o1` (stereo not given)?
VDR inh: -21.7%

How did CC1CCN(c2nnc(N3CCC(C)CC3)c3ccccc23)CC1 do in these assays?
VDR inh: -7.8%

How did CSc1nc(-c2ccco2)nn1C(=O)c1ccco1 do in these assays?
VDR inh: -2.7%

What do the screens show for `COc1ccc(CCNC(=O)C(=O)Nc2ccc3c(c2)OCCO3)cc1OC`?
VDR inh: 7.8%

Results for O=C(CSc1nc2ccccc2s1)N1N=C(c2cccs2)CC1c1ccc(F)cc1 (stereo not given) ?
VDR inh: 4.1%

How did O=C(CN(C1CCCCC1)S(=O)(=O)c1ccc(Br)cc1)NCc1ccncc1 do in these assays?
VDR inh: -12.0%

Results for CCn1c(SCC(=O)Nc2ccc(F)cc2)nnc1C1CC1 ?
VDR inh: 6.5%

What do the screens show for `Cc1cc(NCCCN2CCOCC2)n2ncc(-c3ccc(Cl)cc3)c2n1`?
VDR inh: 12.4%

How did CCOC(=O)N1CCC(NC(=O)COc2cc(=O)n(C)c3ccccc23)CC1 do in these assays?
VDR inh: -12.9%

How did COc1cccc(OCc2cc(C(=O)N3CCN(C4CCCC4)CC3)no2)c1 do in these assays?
VDR inh: 0.8%

Results for CC(=O)c1ccc(Cc2ncc(C(F)(F)F)cc2Cl)s1 ?
VDR inh: 11.9%

What do the screens show for `O=C(CSc1n[nH]c(=O)n1C1CC1)Nc1ccc(OC(F)(F)F)cc1`?
VDR inh: -17.6%

What do the screens show for `Cc1ccc(NC(=O)COC(=O)c2c[nH]c3ccccc23)cc1C`?
VDR inh: -12.4%

How did Cc1nc2ncnn2c(C)c1CCC(=O)NCc1ccccc1Cl do in these assays?
VDR inh: -3.1%

What do the screens show for `CCOC(=O)c1c(NC(=O)COc2ccccc2)sc(C(C)=O)c1C`?
VDR inh: -1.4%

How did COc1cccc(C(=O)Oc2cccc(N3C(=O)C4C5CC(C(Br)C5Br)C4C3=O)c2)c1 (stereo not given) do in these assays?
VDR inh: 11.2%

How did COc1ccc(/C=C/C(=O)NC(=S)NNC(=O)c2cccs2)cc1OC do in these assays?
VDR inh: -13.1%

What do the screens show for `COC(=O)CNC(=O)c1cn(CC(C)C)c(=O)c2cc(OC)c(OC)cc12`?
VDR inh: 3.1%

Results for CS(=O)(=O)N1CCCC(C(=O)Nc2ccccc2C(F)(F)F)C1 (stereo not given) ?
VDR inh: -10.6%

Results for CCOC(=O)c1cc2c(=O)n3ccccc3nc2n(CCCOC)c1=NC(=O)c1cc2ccccc2o1 ?
VDR inh: -8.3%

What do the screens show for `COc1cc(-c2ccc(NC(=O)CN3CCC(C)CC3)c(OC)c2)ccc1NC(=O)CN1CCC(C)CC1`?
VDR inh: -1.7%

What do the screens show for `CCn1c(=O)n(CC)c2cc([N+](=O)[O-])ccc21`?
VDR inh: 11.8%

How did Cc1c(C(=O)NCCCN2CCCC2=O)oc2ccccc12 do in these assays?
VDR inh: -3.0%

How did CCc1ccc(N(CC(=O)Nc2sc3c(c2C(=O)OC)CCCC3)S(C)(=O)=O)cc1 do in these assays?
VDR inh: -10.6%

How did O=C(NCc1ccco1)C1CCCN1C(=O)Nc1ccc(Cl)cc1 (stereo not given) do in these assays?
VDR inh: inconclusive

How did CC(=O)Nc1ccc(NC(=O)c2ccc3c(c2)N(Cc2cccc(Cl)c2)C(=O)c2ccccc2S3=O)cc1 (stereo not given) do in these assays?
VDR inh: 2.8%

Results for O=C(Nc1cc(S(=O)(=O)N2CCCC2)ccc1OCC(F)(F)F)c1ccc(F)cc1 ?
VDR inh: -12.8%

How did COc1ccccc1NC(=O)N1CCN(C)CC1 do in these assays?
VDR inh: 12.0%

What do the screens show for `CCc1ccc(-n2c(=O)c3c4c(sc3n(CC(=O)NCCCOC)c2=O)CCCC4)cc1`?
VDR inh: -3.5%

Results for CN(C)c1ncc2nc(CCc3ccccc3)c(=O)n(Cc3cccs3)c2n1 ?
VDR inh: inconclusive

What do the screens show for `C=CCOc1ccccc1/C=N/NC(=O)Cc1ccc(C)cc1`?
VDR inh: 3.3%

What do the screens show for `COc1cc(C(CCN2CCOCC2)c2c(OC)cc(OC)c3c(-c4ccccc4)cc(=O)oc23)cc(OC)c1OC` (stereo not given)?
VDR inh: 1.1%&-17.8%

How did CCCc1nnc(SCC(=O)Nc2cccc(Cl)c2Cl)o1 do in these assays?
VDR inh: -4.2%

Results for CCOC(=O)[C@H]1[C@H]2COc3ccc(Cl)cc3[C@@H]2N2C(=O)CNC(=O)[C@@]12C ?
VDR inh: -5.1%

How did O=C(CN(C(=O)CCC(=O)Nc1nccs1)C1CCCC1)NCc1ccc2c(c1)OCO2 do in these assays?
VDR inh: 9.0%

Results for CC(=O)N1CCC2(CC1)CCN(C(=O)Nc1cccc(C#N)c1)CC2 ?
VDR inh: -3.9%

Results for COc1ccc(-c2nc(CSCC(=O)N3CCN(C(=O)c4ccco4)CC3)c(C)o2)cc1OC ?
VDR inh: -6.7%

Results for CCOC(=O)C1CCN(C(=O)CCNC(=O)Cn2ccc3ccccc3c2=O)CC1 ?
VDR inh: -4.2%

Results for Cc1ccc2nc(NC(=O)[C@H](C)N3C(=O)C4CC=CCC4C3=O)sc2c1 (stereo not given in full) ?
VDR inh: -0.1%

Results for CCCCN(C(=O)c1ccc(-c2ccc(Cl)cc2)o1)c1c(N)n(CCCC)c(=O)[nH]c1=O ?
VDR inh: 70.8µM*

Results for CCC(C)C(N)C(=O)NC(CC(N)=O)C(=O)NC(CC(C)C)C(=O)NC(CCCCN)C(=O)NC(C)C(=O)NC(CC(C)C)C(=O)NC(C)C(=O)NC(C)C(=O)NC(CC(C)C)C(=O)NC(C)C(=O)NC(CCCCN)C(=O)NC(CCCCN)C(=O)NC(C(=O)NC(CC(C)C)C(N)=O)C(C)CC (stereo not given) ?
VDR inh: -17.0%

How did O=C(CSc1nc2ccccc2[nH]1)NC1CCCc2ccccc21 (stereo not given) do in these assays?
VDR inh: -3.4%

What do the screens show for `CCc1ccc(OCC2c3cc(OC)c(OC)cc3CCN2C(=S)NCCOC)cc1` (stereo not given)?
VDR inh: 2.0%

Results for S=c1[nH]nc(COc2ccc(Cl)cc2)n1Cc1ccco1 ?
VDR inh: -2.9%

Results for CCCCOCCCNC(=O)c1ccc(NC(C)=O)cc1 ?
VDR inh: 6.9%

Results for CC(=O)Nc1nnc(CCS(=O)(=O)c2ccc(C)cc2)s1 ?
VDR inh: -13.1%

What do the screens show for `CCc1nnc(NC(=O)CCC(=O)N2CCN(Cc3cc(F)ccc3OC)CC2)s1`?
VDR inh: 7.3%

How did COc1ccc(CSc2nncn2N)cc1Br do in these assays?
VDR inh: -2.4%

Results for Cc1ccc(NC(=O)C(Nc2ccccc2)c2ccccc2)cc1 (stereo not given) ?
VDR inh: 1.4%

How did c1ccc2[nH]c(CN3CCCCC3)nc2c1 do in these assays?
VDR inh: 8.9%

What do the screens show for `CCC(=O)O[C@H](CC(=O)O)C[N+](C)(C)C`?
VDR inh: 13.1%

How did COc1ccc(-c2nc(Cn3c(SCc4ccc(C)cc4)nc4cccnc43)c(C)o2)cc1OC do in these assays?
VDR inh: 4.0%
